Screens (PubChem BioAssay)
Sa ugtP lethal – growth inhibition of ugtP-null S. aureus, primary screen, RN4220 ugtP deletion, OD600; 16 h; some inactives read as strong as hits; growth inhibition, % (concentration not given with the values); AID 1259309, 2017; 330,000 compounds, 0.54% hits;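 active = z-score under -3 and OD600 up to 0.15 on both plates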;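 note: plate controls were untreated wells for no effect and antibiotic for full effect; wells of about 80 µL received 100 nL stock; the first replicate is given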
BJeLR lethal – MLPCN primary cell-based screen for lethality selective to Ras in HRASV12 cells | BJeLR (HRASV12) viability, CellTiter-Glo ATP luminescence, 48 h; reference of the scale not given here | inhibition, % (test concentration not listed) | 300,000 compounds, 0.17% hits | AID 1554, 2009;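 active = replicate mean above 50%; inconclusive = above 50% but judged a plate artefact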;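 note: 50 nL library stock added to about 25 µL; numbers are from one replicate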
RN4220 kill – growth inhibition of S. aureus RN4220, primary screen, OD600. 16 h. inhibition, % (test concentration not listed). 330,000 compounds, 0.33% hits. AID 1259311, 2017;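 active = z-score of -3 or lower and OD600 up to 0.18 on both plates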;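 note: plate controls were untreated cells for no effect and reference antibiotic for full effect; stock transfer was 100 nL into about 80 µL; one replicate is shown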
PrP 5UTR inh – inhibition of PrP 5' UTR reporter expression; 340,000 compounds, 0.35% hits; inhibition, % (concentration not given with the values); cell-based PrP 5' UTR mRNA reporter, plate reader;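 active = every replicate at 50% or more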;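 note: 0 = median of the neutral control wells; tested in H4 reporter cells; numbers are from one replicate; inactives centre near -14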
Bead autofluor – compound fluorescence in toxin protease inhibitor counterscreen; compound autofluorescence counterscreen, microsphere flow cytometry; stronger effect = higher value; fluorescence intensity (concentration not given with the values); 360,000 compounds, 3.1% hits; AID 624483;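 active = at least 3 SD above the mean of all compounds, about 16000 in these data; inconclusive = too few beads counted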;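 note: 100 nL of 1 mM stock went into each well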
Mtb hypoxia rep – PubChem AID 1159583; 300,000 compounds, 0.1% hits; fluorescence inhibition, % (concentration not given with the values); M. tuberculosis hypoxia-regulated fluorescent reporter, fluorescence;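 active = 35 to 45% if threefold the growth effect, above 45% if 1.5-fold the growth effect; inactive = the rest, general growth blockers included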;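 note: wells of about 50 µL received 100 nL stock; 0% = vehicle wells and 100% = reference inhibitor wells; whole bacteria with a GFP reporter of the hypoxia response; strong numbers were not always called active; many hits fall short of the cut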
Mtb hypoxia rep growth – further read-out of Mtb hypoxia rep, marked with its call; growth inhibition, %; measured here: M. tuberculosis growth (absorbance);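 0% = vehicle and 100% = reference antibiotic; read after six days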
* = called active by the depositor; ? = inconclusive; / = not tested or not shown. Rows were taken by chance; 4% or so of the library scored in one or more.

SMILES	Sa ugtP lethal	BJeLR lethal	RN4220 kill	PrP 5UTR inh	Bead autofluor	Mtb hypoxia rep	Mtb hypoxia rep growth
Fc1ccccc1C1CCN(Cc2nc(COc3ccccc3)no2)C1 (stereo not drawn)	-5	6	4.6	-23	4243	-9	-8
CN(C)c1nc2c(c(N)nn2-c2ccc(Cl)cc2)c(=O)o1	-12	-11	8.4	-31	19528*	8	11
CCN1C(=Cc2ccc3ccccc3[n+]2CC)C=Cc2ccccc21	100*	/	100*	/	/	/	/
C=CCn1nc2n(c1=O)-c1ccccc1SC2	6	4	1.0	-18	4344	-4	8
COc1cccc2c(Cl)c(CC=C(Cl)Cl)c(C)nc12	8	-4	-5.6	6	3054	12	-3
C=CCn1c(O)c(C(CC)=NCC2CCCO2)c(=O)[nH]c1=O (stereo not drawn)	5	8	1.1	7	5973	18	-5
O=C(O)CCc1ccc(S(=O)(=O)NCCc2ccccc2)cc1	1	5	1.7	-14	20869*	9	6
COc1cc(OC)cc(C(=O)NCC2CCCO2)c1 (stereo not drawn)	-5	4	8.2	-26	8270	13	7
CCCN(c1ccc(C(=O)OC)cc1)S(=O)(=O)c1ccccc1	12	-7	9.1	-29	2098	13	1
Cc1ccc(NC(=O)Cn2cc(C=O)c3ccccc32)cc1	4	6	2.6	1	4621	0	2
O=C1CSCN1c1ccc(Cl)c(Cl)c1	-1	-4	9.2	-33	2491	14	0
COc1ccc2c(CCNC(N)=S)c[nH]c2c1	7	10	1.4	-24	4777	6	-1
CC1CCCCC1=NNc1ccc([N+](=O)[O-])cc1[N+](=O)[O-] (stereo not drawn)	4	/	3.9	/	/	15	11
O=S(=O)(Nc1c(O)ccc2ccccc12)c1cccc2ccccc12	-14	4	3.9	3	4185	-2	-15
CCOC(=O)c1nnn(CC(=O)N2N=C(c3ccccc3)CC2c2ccccc2)c1C(=O)OCC (stereo not drawn)	-14	-4	2.3	11	3888	5	3
Cc1ccc(C(=O)Nc2ccccc2N2CCCCC2)cc1S(=O)(=O)N1CCOCC1	5	/	4.6	-9	/	-1	14
Cc1nnc(SCC(=O)N(C)Cc2ccccc2)[nH]c1=O	-1	-8	-2.7	-20	4646	5	3
Cc1cc(C)cc(NC(=O)c2ccc(CSc3nnnn3C)cc2)c1	22	-8	15	-3	2400	-4	-7
C=C1C(=O)OC2C1C(OC(=O)CC(=O)OC1CC(C)C3C=CC(=O)[C@@]3(C)C3OC(=O)C(=C)C13)CC(C)C1C=CC(=O)[C@]12C (stereo partly drawn)	6	/	7.9	/	/	21	23
COc1ccc(C2C(C(=O)OC3CCCCC3)=C(C)Nc3nnnn32)c(OC)c1OC (stereo not drawn)	-3	5	1.7	-13	2731	-2	12
C=CCNC(=O)CC(=O)N/N=C/c1cccc(C)c1	/	-13	/	-23	2030	/	/
O=C(CCSc1ccc(Cl)c(Cl)c1)NC12CC3CC(CC(C3)C1)C2	-42	0	-12	-22	4160	-3	0
CS(=O)(=O)N(CC(=O)Nc1ccccc1C(=O)NCCc1ccccc1)c1ccc2c(c1)OCCO2	-3	-2	4.3	-7	7699	-1	-1
Cc1cc(C=NO)c(C)n1-c1ccccc1	4	/	2.4	/	/	10	2
O=C(Nc1cccc(F)c1)c1c(F)c(F)c(F)c(F)c1F	-14	-3	0.5	-26	9474	5	4
Cc1cc([N+](=O)[O-])nn1CCCC(=O)O	4	-1	6.0	-19	4598	13	6
Cc1ccc(N2C(=O)C(Cc3ccccc3)NC2=S)cc1 (stereo not drawn)	35	4	3.4	-16	6852	-1	8
O=C1CCCC2=C1C(c1ccccc1)CC(=O)N2c1ccccc1 (stereo not drawn)	-11	13	-0.2	-27	2799	/	/
Cc1ccc(Cn2c(=O)n(Cc3ccco3)c(=O)c3ccccc32)cc1	-2	1	-5.0	16	4770	/	/
CC(=O)CC(=O)Nc1ncc(C(F)(F)F)cc1Cl	9	2	3.4	-15	3761	4	-1
C/C(=N\NC(=O)COc1ccc(C(C)(C)C)cc1)c1ccc(OC(F)F)cc1	/	4	/	-18	2082	/	/
O=C(Cn1ncc2c3ccccc3n(Cc3ccccc3)c2c1=O)NCc1ccccn1	2	0	2.6	-8	5734	-5	-1
C=CCn1c(SCC(=O)N2CCc3ccccc3C2)nc2sc(C)cc2c1=O	-8	4	-14	-20	2789	5	3
NNc1nc(Nc2ccccc2)nc(N2CCCCC2)n1	-18	2	10	-26	9179	-2	2
N#Cc1ccc[n+](CC(=O)c2ccc(Cl)cc2)c1	4	-5	-1.2	-17	4913	-3	-8
COC(=O)C1=C(NC(=O)c2ccc(C)cc2)CCS1	4	0	4.2	/	11218	3	1
O=C(CCN1CCc2ccccc2CC1)c1ccc2c(c1)OCCO2	9	6	6.0	-9	13693	1	3
Cc1ccc(CN2CCN(CC(=O)NN=Cc3c[nH]c4ccccc34)CC2)cc1	0	/	2.8	/	/	4	-1
Cc1ccc(NC(=O)CSc2ccccc2NC(=O)c2ccccc2)cc1Cl	-8	-1	-2.3	-45	2083	-6	4
COc1ccc(C(=O)Nc2ccc(S(=O)(=O)Nc3cc(C)nc(C)n3)cc2)c(OC)c1	0	3	0.1	-6	?	-4	3
Cc1cc(C)c(-n2c(C)cc(/C=C3/NC(=O)NC3=O)c2C)c(C)c1	0	14	4.1	/	/	/	/
Cc1cc(/C=C(\C#N)C(=O)O)c(C)n1CC(C)C	5	4	4.2	-17	2853	5	1
CCN(CC(=O)NC1CCCC1)S(=O)(=O)c1ccc(C)cc1	8	-5	4.6	-18	4150	11	6
CC(C)Oc1cc2oc(=O)c3c(c2cc1Cl)CCC3	1	7	12	-2	3597	7	-3
COc1ccc(/C=N/N=C2/NC(=O)C(c3ccccc3)(c3ccccc3)S2)cc1	/	-2	/	-27	4233	/	/
O=C(CN1C(=O)CNC1=O)Nc1cccc(C(F)(F)F)c1	6	-11	4.7	-25	10788	2	6
CCOC(=O)C1(CC2CCCCO2)CCN(C(=O)NCc2ccccc2)CC1 (stereo not drawn)	3	4	1.7	-23	4106	5	4
Cc1csc2ncnc(NCCc3ccccn3)c12	0	12	2.6	-11	2583	7	2
COc1ccc(OCC(O)CNC(=O)Nc2cc(F)ccc2C)cc1 (stereo not drawn)	7	2	2.2	-3	4506	-1	8
Cc1ccc(C)c2[nH]c(=O)c(CN(Cc3ccc4c(c3)OCO4)Cc3nnnn3Cc3ccco3)cc12	-4	4	4.2	-4	3302	15	10

5 compounds picked at random from those above:
SMILES	Sa ugtP lethal	BJeLR lethal	RN4220 kill	PrP 5UTR inh	Bead autofluor	Mtb hypoxia rep	Mtb hypoxia rep growth
COc1ccc(OCC(O)CNC(=O)Nc2cc(F)ccc2C)cc1 (stereo not drawn)	7	2	2.2	-3	4506	-1	8
CCN(CC(=O)NC1CCCC1)S(=O)(=O)c1ccc(C)cc1	8	-5	4.6	-18	4150	11	6
Cc1csc2ncnc(NCCc3ccccn3)c12	0	12	2.6	-11	2583	7	2
Cc1cc(/C=C(\C#N)C(=O)O)c(C)n1CC(C)C	5	4	4.2	-17	2853	5	1
Cc1cc(C)c(-n2c(C)cc(/C=C3/NC(=O)NC3=O)c2C)c(C)c1	0	14	4.1	/	/	/	/

(listing goes on)
SMILES	Sa ugtP lethal	BJeLR lethal	RN4220 kill	PrP 5UTR inh	Bead autofluor	Mtb hypoxia rep	Mtb hypoxia rep growth
O=C(c1cccc([N+](=O)[O-])c1)N1CCCC(C(=O)N2CCCCC2)C1 (stereo not drawn)	1	4	0.8	-4	4413	11	2
COC(=O)c1ccc(N2C(=O)Nc3ccccc3N2O)cc1	9	4	2.6	-17	2629	3	1
O=C(OCC(=O)N1CCCc2ccccc21)c1c(F)cccc1F	-6	-7	2.1	-7	5852	2	13
CCc1nc(N)c(C#N)c(-c2ccc(OC)c(OC)c2)c1C	-3	1	9.1	-16	10275	16	15
COc1ccc(-n2c(SCc3ccc([N+](=O)[O-])cc3)nnc2-c2ccccc2)cc1	36	11	5.2	-17	2333	/	/
COc1ccccc1NC(=O)CNC(=O)CC12CC3CC(CC(C3)C1)C2	-5	/	2.0	-12	8821	-5	3
O=C(NCCc1ccccc1)C1CC(=O)N(C2CCCCCC2)C1 (stereo not drawn)	9	-2	8.2	-12	12274	8	0
Cc1[nH][nH]c(=O)c1C(c1c(C)[nH][nH]c1=O)c1cn(Cc2ccccc2Cl)c2ccccc12	-22	10	15	-47	2189	4	7
Cc1nc2nc(-c3cccnc3)nn2c(C)c1Cl	-2	-13	1.5	-1	3976	6	5
Cc1nc(NC(=O)/C=C/c2ccccc2)sc1C(=O)Nc1ccc(Cl)cc1	-17	-9	8.1	-10	23690*	4	3
COc1ccc(S(=O)(=O)N2CCCCCC2)cc1C(=O)Nc1cccc(C)n1	-4	5	14	3	4199	-8	0
CCc1ccc(/C=C2\Oc3c(ccc(O)c3CN3CCN(C)CC3)C2=O)cc1	7	0	4.9	-16	/	4	-2
Cc1cc(Cl)ccc1OCCCC(=O)NCC1CCCO1 (stereo not drawn)	4	-1	6.1	0	4549	/	/
CC(=O)c1c(C(C)=O)c(C)n(-c2ccc(N)c(C)c2)c1C	7	4	3.6	-2	4818	/	/
COC(=O)C1CCN(S(=O)(=O)CCNC(=O)c2ccc(F)cc2)CC1	4	-7	2.1	-22	/	4	4
COC(=O)C1=C(c2ccc(F)cc2OCc2ccccc2)CC2CCC1N2C(=O)NCc1cccc(OC)c1 (stereo not drawn)	13	/	-5.1	/	/	5	3
CCOC(=O)CCc1c(C)c2ccc(OC3CCCCC3=O)cc2oc1=O (stereo not drawn)	13	1	-1.9	-26	3574	12	5
Cc1cc(C)nc(/N=C(\N)N2CCCCCC2)n1	/	-4	/	-13	2830	/	/
CC(=NCc1ccco1)c1c(O)n(-c2ccc(C)cc2)c(=O)[nH]c1=O	0	-12	1.0	-11	5911	-4	-2
COc1cc(NC(=O)Cc2ccccc2)ccc1NC(=O)c1ccccc1	5	-1	4.6	-13	4105	11	-1
CCC(=NC1CC(C)(C)NC(C)(C)C1)C1=C(O)CC(C)(C)CC1=O	5	9	2.0	-1	2620	/	/
O=C(CSc1nc2ccccc2[nH]1)NCc1ccco1	-3	4	-4.1	-18	8141	-3	-9
CCC1=NN(C(=O)Cc2ccc([N+](=O)[O-])cc2)C(O)(C(C)(C)C)C1 (stereo not drawn)	9	-14	4.1	-10	2065	-1	5
CC(C)Cc1ccc(S(=O)(=O)N2CCN(C(=O)c3ccco3)CC2)cc1	12	3	2.5	-4	10115	1	-4
Cc1ccc(S(=O)(=O)N2CCN(C(=O)COC(=O)/C=C/c3ccc(OC(F)F)cc3)CC2)cc1	-7	/	-2.6	-19	3047	-1	0
CC(O)CNc1nc2c(c(=O)n(Cc3cccc(Cl)c3)c(=O)n2C)n1C (stereo not drawn)	2	-18	-0.1	-10	3554	14	8
CCOc1ccc(CCNC(=O)c2cc(C)on2)cc1OCC	-5	6	3.5	-10	/	2	0
Cc1ccc(C(=O)NC2CCS(=O)(=O)C2)cc1S(=O)(=O)N1CCCCC1 (stereo not drawn)	11	0	18	-5	2423	2	3
Cc1ccc(C2(C)NC(=O)N(CC(=O)NC3CCCCC3)C2=O)cc1 (stereo not drawn)	0	/	-0.7	-11	5589	-5	4
COc1ccc(N(CC(=O)NN=C(C)c2cccs2)S(=O)(=O)c2ccccc2)cc1Cl	11	/	4.2	/	/	-6	-3
Cc1ccc(S(=O)(=O)NN=Cc2cc([N+](=O)[O-])ccc2Cl)cc1	-7	/	12	/	/	4	-2
CCCNc1c(NS(=O)(=O)c2ccc(OC)c(OC)c2)c(=O)oc2ccccc12	11	5	3.8	-14	5374	4	6
Cc1cc(C)n(C(=O)Cn2nc([N+](=O)[O-])cc2C)n1	2	-4	12	-11	3730	8	0
O=C1CC(N2CCN(c3ccccc3)CC2)C(=O)N1c1cccc(Cl)c1 (stereo not drawn)	3	-2	3.3	-6	3465	2	-6
COP(=O)(OC)c1nc(-c2ccc([N+](=O)[O-])cc2)oc1N1CCCCC1	4	-1	1.4	-8	3557	5	1
